Mtb bLac sens: beta-lactam sensitization of Mtb H37Rv. M. tuberculosis H37Rv growth with meropenem, percent inhibition; hits of this screen are not shown here. inhibition, % at 25 µM. hit rate 0.27% among 330,000;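 active means about 74% or more and at least 40 points above the plate without the antibiotic, then above 30% in a dose series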;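 further: growth measured after seven days incubation then overnight dye step; 0% = bacteria only wells and 100% = bacteria with antibiotic; twin plates without the antibiotic show which effects depend on it; some results filed as inactive read as strong as hits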
YopH inh: blocks Yersinia enterocolitica YopH tyrosine phosphatase; fluorescence Ex485/Em525; inhibition, %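 (about 10 µM by stock and volumes)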; hit rate 0.16% among 140,000; AID 898;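 active means inhibition of 50% or more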;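 further: controls were vehicle for no effect and minimum signal wells for full effect; inactives centre near -20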
RecA splice inh: inhibitors of M. tuberculosis RecA intein splicing. P9WHJ3. cell-free RecA intein splicing, fluorescence. inhibition, %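 (about 9 µM by stock and volumes)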. hit rate 0.75% among 290,000. AID 2221; in the data active means inhibition above about 30%;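 further: 0% = vehicle wells and 100% = reference inhibitor control wells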
Target sequence (P9WHJ3 whole entry, looked up, canonical isoform): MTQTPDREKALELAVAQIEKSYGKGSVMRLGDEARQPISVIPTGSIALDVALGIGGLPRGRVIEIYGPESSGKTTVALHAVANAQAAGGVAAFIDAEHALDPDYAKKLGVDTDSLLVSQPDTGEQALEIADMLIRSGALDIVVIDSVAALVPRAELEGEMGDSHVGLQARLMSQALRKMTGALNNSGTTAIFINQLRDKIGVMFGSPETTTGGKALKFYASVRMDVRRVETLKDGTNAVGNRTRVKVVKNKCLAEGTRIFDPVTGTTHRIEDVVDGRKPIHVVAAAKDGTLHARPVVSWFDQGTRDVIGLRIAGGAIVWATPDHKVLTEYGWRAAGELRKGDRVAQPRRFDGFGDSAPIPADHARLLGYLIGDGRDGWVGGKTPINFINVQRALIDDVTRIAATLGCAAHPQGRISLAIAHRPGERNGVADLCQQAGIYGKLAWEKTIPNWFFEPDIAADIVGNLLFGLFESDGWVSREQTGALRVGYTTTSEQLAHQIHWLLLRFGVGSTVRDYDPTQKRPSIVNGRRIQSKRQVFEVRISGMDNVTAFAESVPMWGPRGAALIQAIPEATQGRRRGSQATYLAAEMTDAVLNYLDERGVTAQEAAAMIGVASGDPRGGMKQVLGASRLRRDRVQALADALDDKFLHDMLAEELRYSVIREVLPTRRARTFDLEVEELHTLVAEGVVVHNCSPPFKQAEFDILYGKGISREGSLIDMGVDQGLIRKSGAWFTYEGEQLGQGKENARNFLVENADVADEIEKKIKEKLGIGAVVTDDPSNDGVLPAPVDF
Arbovirus inh: blocks arbovirus infection; arbovirus infection cell-based antiviral screen; inhibition, % at 10 µM; hit rate 0.37% among 200,000; AID 1251;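 active means inhibition from about 30%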;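 further: bluetongue infection of BSR cells; cell survival read as ATP light after 72 h; 0% = infected wells without compound and 100% = uninfected wells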
Mtb H37Rv: M. tuberculosis H37Rv growth inhibitors, H37Rv strain (AID 1626) | M. tuberculosis H37Rv growth inhibition; higher % means a stronger effect | one-dose inhibition, % at 10 µM; IC50 in µM for titrated hits | hit rate 0.95% among 220,000;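 active means confirmed in a dose series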;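 further: bacteria incubated seven days before Alamar blue readout; 0% = bacteria only wells and 100% = bacteria with antibiotic wells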
Arbovirus inh repeat: second read-out of Arbovirus inh, no call of its own (marks repeat the call); inhibition, %; measured here: 10K subset replicate screen; many hits read low in the repeat;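 first of two repeat runs on a subset; 0% = infected and 100% = uninfected wells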
* = called active by the depositor; . = not tested or not shown; & = joins results of further samples. Only part of the results is shown (hit frequency here may not be typical).

SMILES	Mtb bLac sens	YopH inh	RecA splice inh	Arbovirus inh	Mtb H37Rv	others
Cc1ccc(OCCn2cc(C=O)c3ccccc32)cc1	9	.	3.0	.	.
Fc1ccc(CNCc2ccccc2C(F)(F)F)cc1	5	-5	-4.3	4	-5%
COC(=O)c1c(NC(=O)COC(=O)C2CCC2)sc(C)c1C	4	.	7.7	.	.
CCCN[C@H]1CCc2nc(N)sc2C1	-2&-4	.	0.7&-0.8	.	13%&11%
O=C(Cc1ccccc1)c1c[nH]c(C(=O)NCCCn2ccnc2)c1	5	.	2.0	7	-6%
NNC(=O)c1cc(-c2ccco2)[nH]n1	-2	.	-4.1	9	4%
C/C=C/c1ccc(OC)c(OC(C)=O)c1	-5	-23	-3.6	2	-5%
O=S(=O)(NC(=S)c1ccccc1)c1ccc(Cl)cc1	1	.	1.0	.	.
CC(=O)N1c2ccccc2NC2=C(C(=O)CCC2)C1c1cccnc1 (stereo not given)	-11	-39	1.4	1	-2%
CC(=O)c1cccc(NS(=O)(=O)c2ccc(N/C=C\C(=O)c3ccc(C)cc3)cc2)c1	-10	-20	-21	1	-13%
COc1ccccc1Nc1ncc(-c2cccs2)s1	16	-37	0.7	7	-1%
Cc1nn(-c2ccc(F)cc2)c2sc(C(=O)OCC(=O)N3CCC(C)CC3)cc12	5	-41	0.0	8	4%
O=C(N/N=C/c1ccc(O)cc1O)C1CC1	2	.	-2.6	.	.
CCN(CCCNC(=O)CCNC(=O)Cn1cnc2ccccc2c1=O)c1cccc(C)c1	-3	-39	-0.3	2	-3%
O=C(COc1ccc([N+](=O)[O-])cc1)NCC(c1cccs1)N1CCOCC1 (stereo not given)	-10	.	0.8	.	.
CCc1ccccc1NC(=O)Cn1c(=O)n(-c2ccc(CC(=O)NCC3CCCO3)cc2)c(=O)c2ccccc21 (stereo not given)	3	.	-3.7	-2	-2%
CC(C)c1ccc(NC(=O)c2ccc(Br)o2)cc1	84	0	1.1	0	30%
CCn1c(SCC(=O)NCC2CCCO2)nc2c([nH]c3ccccc32)c1=O (stereo not given)	-1	.	-1.4	.	.
Cc1ccc(C2=CSC3=NS(=O)(=O)CCN23)cc1	3	.	0.1	18	11%
COc1cc(C(=O)/C=C/c2cccnc2)c([N+](=O)[O-])cc1OC	99	.	-1.9	.	.
Cc1ccc(NC(=O)N2CCC(c3nc4c(nnn4Cc4c(F)cccc4Cl)c(=O)[nH]3)CC2)cc1	98	-19	9.3	-3	46%
N#Cc1ccccc1CSC1=NCCS1	-3	.	.	-15	-4%
CC(OC(=O)CNC(=O)C12CC3CC(CC(C3)C1)C2)C(=O)Nc1ccc(N2CCOCC2)cc1 (stereo not given)	1	-8	-2.9	10	-6%
Cc1ccc(N(CC(=O)NCCc2ccc(Cl)cc2)S(=O)(=O)c2c(C)noc2C)cc1	5	.	-6.1	.	.
CC(C)CC(NC(=O)C(NC(=O)OC(C)(C)C)C(C)C)C(=O)NC(CCC(=O)OCc1ccccc1)C(N)=O (stereo not given)	-4	-24	0.9	1	-8%
Cc1cc(SCC(=O)OCC(=O)N(CCC#N)c2ccccc2)nc2ccccc12	-1	.	3.0	.	.
CC(C)(C)C(=O)N1CCN(c2ccc([N+](=O)[O-])c(-n3nc(-c4ccccc4)c4ccccc4c3=O)c2)CC1	-1	-20	0.8	-5	4%
CCn1c(C(=O)N2CCC(Cc3ccccc3)CC2)cc2sccc21	-7	-39	12	21	-2%
COc1ccc(Nc2nc(N)nc(CSC(=S)N3CCCCC3C)n2)cc1 (stereo not given)	2	.	7.7	.	5%
O=C(c1[nH]ncc1-c1ccccc1)C1CO1 (stereo not given)	-7	.	7.7	.	-3%
COc1ccccc1C(=O)N(CN1CCCC1=O)c1cccc(Cl)c1	3	-8	2.9	14	3%
CCn1c(C)[n+](CC(O)COCC2CC=CCC2)c2ccccc21 (stereo not given)	6	6	-0.3	5	1%
Cc1ccc(-c2cc(C(=O)N/N=C/c3ccco3)n[nH]2)s1	3	-10	2.5	0	60%
COc1cccc(-c2cc(C(F)(F)F)n3ncc(S(=O)(=O)c4ccccc4)c3n2)c1	10	-11	-83	-2	-5%
CC12CN3CC(C)(CN(C1)C3c1ccco1)C2=O (stereo not given)	-7	-4	.	12	-1%	Arbovirus inh repeat=-1
COc1cc(C(=O)N/N=C2\CCS(=O)(=O)c3ccc(F)cc32)cc(OC)c1OC	3	2	-2.2	3	2%
CCOC(=O)C1=C(C)NC2=C(C(=O)CC(C)(C)C2)C1c1ccsc1 (stereo not given)	-5	-6	-9.0	2	1%
COc1ccc(/C=C2\SC(N3CCCCC3)=NC2=O)cc1	-6	.	-1.0	.	.
Cc1ccc(OCC(=O)Nc2ccc3c(c2)C(=O)NC3=O)cc1	7	.	0.6	.	.
S=c1[nH]nc(-c2cccnc2)n1-c1ccccc1	-8	-18	-1.1	0	-6%
Cc1cc(C)nc(NS(=O)(=O)c2ccc(NC(=S)NC(=O)c3cccnc3)cc2)n1	0	.	0.5	-2	-1%
Cc1cccc(-n2c(SCC(=O)N3CCC(C(=O)O)CC3)nc3ccccc3c2=O)c1C	-8	.	-1.8	.	.
CN(CC(=O)NCCc1ccc(S(N)(=O)=O)cc1)Cc1c(F)cccc1Cl	-2	.	-0.2	.	.
O=C(COC(=O)c1ccccc1)Nc1ccc2[nH]c(=O)[nH]c2c1	-3	.	-1.0	.	.
O=c1cc(CSc2nnc(COc3ccccc3Cl)o2)nc2sccn12	4	-13	2.3	8	-7%

Random excerpt: 2 entries already listed.
SMILES	Mtb bLac sens	YopH inh	RecA splice inh	Arbovirus inh	Mtb H37Rv	others
CC(=O)N1c2ccccc2NC2=C(C(=O)CCC2)C1c1cccnc1 (stereo not given)	-11	-39	1.4	1	-2%
CCn1c(C)[n+](CC(O)COCC2CC=CCC2)c2ccccc21 (stereo not given)	6	6	-0.3	5	1%

Other results.
SMILES	Mtb bLac sens	YopH inh	RecA splice inh	Arbovirus inh	Mtb H37Rv	others
CCOC(=O)C1=C(C)N(C)C(=O)NC1c1ccc(C)s1 (stereo not given)	5	-3	0.8	5	-7%
CCOP(=O)(c1ccccc1)C(O)c1ccccc1 (stereo not given)	-7	-16	-3.6	0	-4%
Brc1cccc2sc(N3CCCC3)nc12	-4	.	1.0	3	-2%
Cc1ccccc1NC(=S)NNC(=O)c1cccnc1	0	-44	0.2	5	-5%
O=c1[nH][nH]c(-c2ccccc2)c1C=Nc1ccccc1	-3	-39	3.0	2	.
COc1ccc(CN2CCN(C(=O)c3cc(OC)c(OC)c(OC)c3)CC2)cc1OC	-5	-15	4.2	-3	-6%
CC(=O)C(Sc1ncnc2sc3c(c12)CCCC3)C(C)=O	-5	.	4.0	4	10%
COc1ccc(CCNC(=O)CC2Nc3ccccc3NC2=O)cc1 (stereo not given)	-1	-44	-11	-2	-6%
CCC1(C)Cc2c(sc3c2c(=O)n(C)c2nnc(SCCc4ccccc4)n32)CO1 (stereo not given)	-6	-9	0.2	0	-1%
Nc1nc2c(-c3ccc(Br)cc3)nnn2c2ccccc12	9	.	-13	.	.
CC(NC(=O)COC(=O)/C=C/c1ccc(Cl)cc1)c1ccccc1 (stereo not given)	0	.	2.0	13	-3%
O=C(CSc1n[nH]c(-c2cc(Cl)ccc2Cl)n1)NCCN1C(=O)CSC1=O	3	-24	-0.8	-3	-1%
N#CCSc1ncnc2c1cnn2CCO	2	-20	-2.2	-3	-9%
Cc1noc(C)c1CSCC(=O)NCCN1C(=O)S/C(=C\c2ccccc2F)C1=O	2	.	16	.	.
CC(C)c1ccc(-c2csc(NC(=O)c3cccs3)c2C(=O)O)cc1	-6	.	6.8	41*	5%
CCC(CC)C(=O)Nc1cc(C(=O)OC)cc(C(=O)OC)c1	-20	-30	-0.5	2	2%
O=C(Nc1c2c(nc3ccccc13)CCCC2)c1cccc([N+](=O)[O-])c1	7	-22	-1.5	-16	1%
CCc1ccc(N2C(=O)c3ccc4c5c(ccc(c35)C2=O)CC4)cc1	-9	-17	-5.5	6	-6%
C[C@H]1CC[C@@]2(O[C@@H](CCO)C[C@H](O)[C@H]2O)O1	2	.	-0.3	.	-7%
COc1ccc(N2CCN(C(=O)CCNS(=O)(=O)c3cccs3)CC2)cc1	-3	1	-1.7	4	-10%
Cc1nnc2sc(-c3cccc(F)c3)nn2c1=O	2	.	-2.0	.	.
O=C(NC(=S)Nc1ccc(CN2CCCCC2)cc1)c1cc2ccccc2o1	-3	.	-1.4	.	80%
NS(=O)(=O)c1ccc(CCNc2ncnc3c2c(-c2ccccc2)cn3-c2ccc(F)cc2)cc1	100	1	22	-33	5.8µM*
CC(=O)Nc1ccc([C@H]2[C@H](C)CC[C@H]3C(=O)N4[C@@H](CC[C@@H](C)[C@@H]4c4ccc(NC(C)=O)cc4)C(=O)N32)cc1	-4	-26	-0.7	-4	.
COC(=O)CCc1c(C)c(C#N)c2nc3ccccc3n2c1N1CCCC1	-2	-10	-16	8	-4%
S=C(NC1CCCCC1)N1CCN(C/C=C/c2ccccc2)CC1	0	8	0.6	9	9%
CCCCn1c(CCNC(=O)CC)nc2ccccc21	-4	-22	-0.2	1	2%	Arbovirus inh repeat=-2
Cn1c(O)c(C=Nc2ccc(Br)cc2)c(=O)n(C)c1=O	5	.	1.1	.	.
COc1ccc(NC(=O)CSc2nnc(Cc3ccc(C)cc3)c(=O)n2N)cc1OC	-4	.	0.2	.	.
CCOC(=O)Cn1c(=O)c2c(nc3n2CCCCN3c2ccc(C)cc2)n(C)c1=O	5	-40	2.4	-6	0%
NNC(=O)Cn1c(SCc2ccccc2)nc2ccccc21	-11	-25	7.5	-6	8%
Cc1ccc(CN2CCSCC2)cc1	4	.	-0.3	.	.
COc1ccc(Nc2ccc([N+](=O)[O-])cc2[N+](=O)[O-])cc1	-6	.	4.0	2	3%
CC(=O)NCCC(=O)Nc1ccc(C(N)=O)cc1	0	.	0.5	7	0%
Cc1noc(/C=C/c2ccco2)c1S(=O)(=O)N1CCC(C(=O)NCc2ccco2)CC1	-1	-3	7.3	-3	1%
COc1ccc(N(CC(=O)N/N=C/c2cccnc2)S(=O)(=O)c2ccc(C)cc2)cc1OC	-7	.	2.7	.	.
Cc1cc(C)nc(Nc2n[nH]c(-c3ccc(C(C)(C)C)cc3)n2)n1	4	.	4.4	-2	-9%
Cc1cccc(-c2cc(C(=O)NCCCn3ccnc3)c3ccccc3n2)c1	.	-36	.	-17	3%
Cc1cc2c(C)nc(-c3ccccc3)nc2o1	-9	-40	-1.1	2	0%
COC(=O)c1ccc(C(=O)NC2CCSc3ccccc32)cc1 (stereo not given)	4	.	-1.9	.	.
CCCn1c(N)c(N(CCOC)C(=O)c2cccc(Cl)c2)c(=O)[nH]c1=O	1	.	-0.8	.	.
OCCCCNc1cccc2ccccc12	4	7	7.0	4	-1%
CCC(C)NC(=O)C1=CCN(S(=O)(=O)c2ccc(C)cc2)CC1 (stereo not given)	-4	.	-1.8	.	-3%

In the list so far, these have two or more sulfur atoms.
SMILES	Mtb bLac sens	YopH inh	RecA splice inh	Arbovirus inh	Mtb H37Rv	others
O=S(=O)(NC(=S)c1ccccc1)c1ccc(Cl)cc1	1	.	1.0	.	.
COc1ccccc1Nc1ncc(-c2cccs2)s1	16	-37	0.7	7	-1%
Cc1ccc(C2=CSC3=NS(=O)(=O)CCN23)cc1	3	.	0.1	18	11%
N#Cc1ccccc1CSC1=NCCS1	-3	.	.	-15	-4%
COc1ccc(Nc2nc(N)nc(CSC(=S)N3CCCCC3C)n2)cc1 (stereo not given)	2	.	7.7	.	5%
Cc1cc(C)nc(NS(=O)(=O)c2ccc(NC(=S)NC(=O)c3cccnc3)cc2)n1	0	.	0.5	-2	-1%
O=c1cc(CSc2nnc(COc3ccccc3Cl)o2)nc2sccn12	4	-13	2.3	8	-7%
CC(=O)C(Sc1ncnc2sc3c(c12)CCCC3)C(C)=O	-5	.	4.0	4	10%
CCC1(C)Cc2c(sc3c2c(=O)n(C)c2nnc(SCCc4ccccc4)n32)CO1 (stereo not given)	-6	-9	0.2	0	-1%
O=C(CSc1n[nH]c(-c2cc(Cl)ccc2Cl)n1)NCCN1C(=O)CSC1=O	3	-24	-0.8	-3	-1%
Cc1noc(C)c1CSCC(=O)NCCN1C(=O)S/C(=C\c2ccccc2F)C1=O	2	.	16	.	.
CC(C)c1ccc(-c2csc(NC(=O)c3cccs3)c2C(=O)O)cc1	-6	.	6.8	41*	5%
COc1ccc(N2CCN(C(=O)CCNS(=O)(=O)c3cccs3)CC2)cc1	-3	1	-1.7	4	-10%
